RecA intein inh: Mtb RecA intein splicing inhibitors, primary screen, biochemical, fluorescence, HTS | Protein RecA (Mycobacterium tuberculosis (strain ATCC 25618 / H37Rv)), P9WHJ3 | cell-free RecA intein splicing | inhibition, %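 (about 9 µM by stock and volumes)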 | 0.75% of 290,000 active; in the data active means inhibition above about 30%; inconclusive means no clear call, values can overlap the other calls;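 further: 0% = vehicle wells and 100% = reference inhibitor control wells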
Target sequence (P9WHJ3 whole entry, looked up): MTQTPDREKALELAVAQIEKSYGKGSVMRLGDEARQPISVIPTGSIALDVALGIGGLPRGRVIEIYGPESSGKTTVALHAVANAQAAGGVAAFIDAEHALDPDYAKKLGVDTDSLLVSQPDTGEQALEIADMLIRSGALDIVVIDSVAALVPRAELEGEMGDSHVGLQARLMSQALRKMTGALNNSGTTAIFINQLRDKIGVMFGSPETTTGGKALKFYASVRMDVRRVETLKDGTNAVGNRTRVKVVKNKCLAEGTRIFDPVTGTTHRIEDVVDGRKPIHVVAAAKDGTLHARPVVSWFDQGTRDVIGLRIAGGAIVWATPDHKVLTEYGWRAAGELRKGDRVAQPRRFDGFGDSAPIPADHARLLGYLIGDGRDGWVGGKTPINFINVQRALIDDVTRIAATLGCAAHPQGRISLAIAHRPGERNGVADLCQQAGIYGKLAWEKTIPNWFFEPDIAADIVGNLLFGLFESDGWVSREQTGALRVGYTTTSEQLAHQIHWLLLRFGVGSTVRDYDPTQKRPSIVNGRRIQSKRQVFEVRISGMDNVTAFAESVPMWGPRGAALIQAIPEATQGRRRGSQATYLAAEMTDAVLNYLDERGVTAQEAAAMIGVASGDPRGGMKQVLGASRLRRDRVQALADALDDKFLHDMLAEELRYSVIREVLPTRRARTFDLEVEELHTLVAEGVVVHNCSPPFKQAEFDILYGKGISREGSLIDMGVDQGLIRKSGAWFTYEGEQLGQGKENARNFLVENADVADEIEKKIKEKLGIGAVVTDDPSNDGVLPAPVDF
YopH inh: YopH tyrosine phosphatase inhibitors, primary screen, biochemical, fluorescence Ex485/Em525; YopH tyrosine phosphatase [Yersinia enterocolitica]; inhibition, %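 (about 10 µM by stock and volumes)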; 0.16% of 140,000 active; AID 898, 2007;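 active means inhibition of 50% or more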;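 further: controls were vehicle for no effect and minimum signal wells for full effect; inactives centre near -20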
Mtb growth: M. tuberculosis H37Rv growth inhibitors, H37Rv strain (AID 1626). M. tuberculosis H37Rv growth inhibition; higher % means a stronger effect. inhibition, % at 10 µM, or IC50 in µM where a hit was titrated. 0.95% of 220,000 active;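 active means confirmed in a dose series; inconclusive means inhibition above 80% but not taken into the dose series; inactive means below 80% or under 30% at every dose of the series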;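 further: bacteria incubated seven days before Alamar blue readout; 0% = bacteria only wells and 100% = bacteria with antibiotic wells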
Arbovirus inh: antivirals against arbovirus infection, primary screen, cell-based, full library, 10K replicate subset. arbovirus infection cell-based antiviral screen. AID 1251, 2008. 0.37% of 200,000 active. inhibition, % at 10 µM;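 active means inhibition from about 30%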;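 further: bluetongue infection of BSR cells; cell survival read as ATP light after 72 h; 0% = infected wells without compound and 100% = uninfected wells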
Mtb bLac sens: beta-lactam sensitization of Mtb H37Rv, H37Rv. inhibition, % at 25 µM. AID 434955, 2010. 0.27% of 330,000 active. M. tuberculosis H37Rv growth with meropenem, percent inhibition; hits of this screen are not shown here;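 active means about 74% or more and at least 40 points above the plate without the antibiotic, then above 30% in a dose series; inconclusive means first-round hits that could not be retested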;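 further: growth measured after seven days incubation then overnight dye step; 0% = bacteria only wells and 100% = bacteria with antibiotic; twin plates without the antibiotic show which effects depend on it; some results filed as inactive read as strong as hits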
* marks the source's active call; other numbers are inactive results; ? = inconclusive; · = not tested or not shown. These rows are one share of the data; rates above refer to the full screens.

SMILES	RecA intein inh	YopH inh	Mtb growth	Arbovirus inh	Mtb bLac sens
CCCn1nc2cc(C(=O)NCc3ccc4c(c3)OCO4)ccc2c1OCC	-1.4	-34.8	-4.5%	-3.9	14.8
O=C(O)CSC1CC(=O)N(c2ccc(Br)cc2)C1=O (stereo not drawn)	-4.6	·	·	·	-7.9
O=C1C(SC(F)(F)C(F)F)=C(C(F)(F)F)OC2C3C=CC(C3)C12 (stereo not drawn)	0.8	-15.8	-6.4%	3.9	-12.4
Cc1ccccc1C(=O)Nc1cccc(NC(=O)c2cccnc2)c1	5.8	·	·	·	-1.5
Cc1ccc(NC(=O)c2ccccc2NS(=O)(=O)c2ccc(F)cc2)cc1S(=O)(=O)N1CCCCC1	17.2	-14.3	4.0%	-9.6	-2.7
Cn1cccc1C(=O)NC(=O)COC(=O)c1ccccc1Sc1ccccc1C#N	2.9	-36.0	-4.7%	10.6	6.1
O=C(Nc1ccc(Br)cc1)/C(=C/c1cccc([N+](=O)[O-])c1)NC(=O)C1CCCCC1	-1.9	-27.8	8.7%	4.2	4.8
CCc1ccc2[nH]c(=O)c(C(c3nnnn3CCOC)N3CCN(c4ccc(F)cc4)CC3)cc2c1 (stereo not drawn)	5.6	-4.8	8.0%	-25.5	8.6
O=C(COc1ccccc1)Nc1ccc2c(c1)nc1n2CCSC1	-0.7	-28.3	-6.8%	-12.5	-8.4
Cc1ccccc1-n1nnnc1SCC(=O)Nc1ccc(S(=O)(=O)N2CCCC2)cc1	-2.2	-5.2	-14.7%	4.9	12.4
Cc1ccccc1C(=O)OCc1nnc(-c2ccc(Cl)cc2)o1	3.3	·	0.8%	2.6	0.1
Cc1ccc(S(=O)(=O)NNC(=O)Nc2cccc(C)c2C)c(C)c1	-0.2	·	·	·	-2.2

Exported in markdown: part of the list above.
| canonical_smiles | RecA intein inh | YopH inh | Mtb growth | Arbovirus inh | Mtb bLac sens |
| --- | --- | --- | --- | --- | --- |
| O=C(COc1ccccc1)Nc1ccc2c(c1)nc1n2CCSC1 | -0.7 | -28.3 | -6.8% | -12.5 | -8.4 |
| Cc1ccccc1-n1nnnc1SCC(=O)Nc1ccc(S(=O)(=O)N2CCCC2)cc1 | -2.2 | -5.2 | -14.7% | 4.9 | 12.4 |

Other compounds follow:
SMILES	RecA intein inh	YopH inh	Mtb growth	Arbovirus inh	Mtb bLac sens
CC1(C)Cc2ccccc2C(/C(=N/O)C(N)=O)=N1	-4.1	-28.5	-7.6%	3.1	2.9
Cc1ccc(S(=O)(=O)NC(=O)Nc2nnc(C3CC3)s2)cc1	3.5	-39.5	-3.9%	6.6	-2.9
COC(=O)c1nn(-c2nc(-c3cccc(OC)c3)cc(C(F)(F)F)n2)cc1[N+](=O)[O-]	-1.0	·	-7.0%	0.3	3.2
O=C(NC1=NCCS1)c1cc(Cl)ccc1Cl	-1.4	·	·	·	4.3
COc1ccccc1-n1c(SCC(=O)O)nnc1-c1ccc(S(=O)(=O)N2CCCCC2)cc1	-1.1	-31.0	-6.6%	12.2	4.2
CC1CCN(C(=O)CN(C)S(=O)(=O)c2cccc3nsnc23)CC1	-0.2	-26.7	-1.6%	17.6	-2.9
Cc1ccc(NC(CC(=O)c2ccccc2)C(=O)O)cc1Cl (stereo not drawn)	-0.8	·	63.5%	·	94.2
COc1cc(NS(=O)(=O)c2ccc(NS(=O)(=O)c3ccccc3)cc2)nc(OC)n1	3.2	-35.6	-7.0%	8.7	-5.7
Cc1c(Cl)cccc1NC(=S)NC1CCN(Cc2ccccc2)CC1	2.2	-17.7	1.4%	-17.1	2.4
Cc1nc(N2CCOCC2)nc(OC(C)C)c1[N+](=O)[O-]	1.6	-19.7	3.0%	-18.0	2.4
Clc1ccccc1Cn1nnc2c(Nc3ccccc3)ncnc21	1.0	-37.7	2.6%	0.3	4.3
COc1cc(NC(=O)c2ncn[nH]2)cc(OC)c1OC	0.9	-113.8	-3.7%	-2.1	·
Cc1nnc(SCCn2c(N3CC(C)CC(C)C3)nc3c2c(=O)n(C)c(=O)n3C)s1 (stereo not drawn)	0.9	-34.8	-0.3%	0.8	·
Cc1ccc(NS(=O)(=O)c2cc([N+](=O)[O-])ccc2NNC(=S)Nc2cc(C)ccc2C)c(C)c1	4.2	-2.0	20.1%	-31.3	5.5
CCc1nc(C)ccc1OC(=O)C12CC3CC(CC(C3)C1)C2	5.5	-4.3	-1.1%	-5.2	17.6
CCOC(=O)c1cccc(NC(=O)CSc2nnnn2C)c1	-0.6	-46.0	1.6%	0.9	-7.6
O=C(c1cccc2ccccc12)C1CCCN(C(=O)CCCn2cncn2)C1 (stereo not drawn)	0.6	·	1.9%	18.8	-4.8
OCCN1CCN(C(=S)Nc2ccccc2)CC1	0.1	·	0.2%	18.3	1.7
CCC(C(=O)NC(C)(C)C)N(Cc1ccccc1Cl)C(=O)c1snc(C(N)=O)c1N (stereo not drawn)	1.5	·	·	·	-1.2
CC1CC(C)CN(C(=O)CCS(=O)(=O)c2ccc3c(c2)NC(=O)CS3)C1 (stereo not drawn)	3.1	·	·	·	1.9
COc1ccc(O)c(C(=O)c2coc(=N)c(C(=O)Nc3ccc(SC(F)F)cc3)c2)c1	-2.2	·	9.7%	-27.2	18.0
Cc1ccc(C(C(=O)NC2CCCC2)N2CCCC(C)C2)cc1 (stereo not drawn)	0.4	-41.4	-1.9%	-0.6	2.7
CC(C)c1ccc2nc3sc(C(=O)N4CCc5ccccc5C4)c(N)c3cc2c1	-3.7	-9.6	-7.7%	-33.2	1.1
CCc1nc2ccc(C(=O)NCCc3ccco3)cc2nc1CC	0.8	·	·	·	-12.3

Entries from the list above that have an aryl methoxy group, in the order listed:
SMILES	RecA intein inh	YopH inh	Mtb growth	Arbovirus inh	Mtb bLac sens
COC(=O)c1nn(-c2nc(-c3cccc(OC)c3)cc(C(F)(F)F)n2)cc1[N+](=O)[O-]	-1.0	·	-7.0%	0.3	3.2
COc1ccccc1-n1c(SCC(=O)O)nnc1-c1ccc(S(=O)(=O)N2CCCCC2)cc1	-1.1	-31.0	-6.6%	12.2	4.2
COc1cc(NS(=O)(=O)c2ccc(NS(=O)(=O)c3ccccc3)cc2)nc(OC)n1	3.2	-35.6	-7.0%	8.7	-5.7
COc1cc(NC(=O)c2ncn[nH]2)cc(OC)c1OC	0.9	-113.8	-3.7%	-2.1	·
COc1ccc(O)c(C(=O)c2coc(=N)c(C(=O)Nc3ccc(SC(F)F)cc3)c2)c1	-2.2	·	9.7%	-27.2	18.0

(continued)
SMILES	RecA intein inh	YopH inh	Mtb growth	Arbovirus inh	Mtb bLac sens
C=CCNC(=O)c1ccc(N(C)S(=O)(=O)c2ccc(OC)cc2)cc1	0.4	-0.6	4.8%	8.0	12.2
O=C(Oc1cccc2c(OC(=O)N3CCCC3)cccc12)N1CCCC1	-2.9	-31.8	5.8%	-2.1	53.2
O=S(=O)(c1ccccc1)N1N=C(c2ccc(Br)cc2)CC1c1ccco1 (stereo not drawn)	7.9	·	·	·	6.5
CCCC1CC(C)(C(=O)Cn2[nH]c(=O)ccc2=O)OC1=O (stereo not drawn)	-0.9	10.7	·	3.8	1.4
COc1ccc(OC)c(S(=O)(=O)NCc2cn3cccc(C)c3n2)c1	0.4	34.3	1.7%	6.5	-3.9
CS(=O)(=O)N(CC(=O)NCc1ccc2c(c1)OCO2)c1cccc(Cl)c1	0.7	·	11.2%	-10.9	-0.5
CC(=O)Oc1ccc(C(=O)Nc2cccc(C(=O)Nc3ccccc3C(=O)O)c2)cc1	7.3	·	·	·	1.1
CC1CCN(CCCNC(=O)c2ccc(N3CCCC3=O)cc2)CC1	-4.4	·	·	·	-9.3
CCCc1nc2oc3cc(OC)ccc3c(=O)c2c(=O)n1CCc1ccccc1	2.4	·	5.7%	·	5.6
O=C(C[n+]1cccc2ccccc21)c1ccc([N+](=O)[O-])cc1	-0.5	·	0.8%	1.2	-4.4
CCCNC(=O)c1onc(CSc2nc3ccccc3[nH]2)c1C(=O)NCCC	18.2	·	·	·	-12.3
Cc1ccc(CNC(=O)CN(C(=O)C2(C)CC(=O)N=C3C=CC=CN32)c2cc(C)ccc2C)cc1 (stereo not drawn)	1.3	·	·	·	0.3
CC1(C)Cc2c(cnn2-c2ccc(F)cc2)C(NC(=O)C2CCC2)C1 (stereo not drawn)	2.4	·	·	·	0.5
COc1ccc(O)c(/C=N/NC(=O)CCC(=O)Nc2ccc(F)cc2)c1	-17.3	·	·	·	0.1
CC(CCc1ccccc1)NC(=O)c1ccc(Br)cc1 (stereo not drawn)	1.9	·	·	·	2.9
CCC(C)n1c(=O)c2sccc2n2c(CCCC(=O)N3CCC(C(N)=O)CC3)nnc12 (stereo not drawn)	-0.8	·	·	·	-1.2
COC(=O)c1ccccc1OS(=O)(=O)N(C)C	0.2	·	2.9%	0.5	-8.9
CCCCCCCSc1nsc(N)n1	13.6	-5.0	6.4%	-21.2	13.9
COc1cccc(N2CC(C(=O)NC3CCCCC3)CC2=O)c1 (stereo not drawn)	3.0	-7.9	-0.6%	6.8	-23.3
CCC(=O)Nc1c(C(=O)N2CCN(c3ccccn3)CC2)cnn1-c1ccc(Cl)cc1	-0.2	-27.9	6.6%	8.3	-5.0
O=C(O)C1C2C=CC(O2)C1C(=O)NCc1ccccc1Br (stereo not drawn)	-0.4	-2.6	-1.9%	7.0	2.8
COc1ccc2[nH]c(C(=O)NCCN3CCCCC3)cc2c1	0.4	·	-3.5%	·	0.6
CC(C)C1CC(CCN)(c2ccccc2)CCO1 (stereo not drawn)	2.1	·	9.0%	·	-10.0
CC(C)CC1(C)NC(=O)N(CC(=O)NC(=O)Nc2ccc3c(c2)OCCO3)C1=O (stereo not drawn)	0.3	-33.4	0.7%	6.3	-6.2
O=[N+]([O-])c1cc(-c2n(-c3ccccn3)c3ccccc3[n+]2-c2ccccn2)ccc1Cl	5.5	·	3.6%	2.5	2.6
CC(=O)Nc1ccc2nc(NC(=O)COc3ccc([N+](=O)[O-])cc3)sc2c1	11.7	·	5.3%	3.6	4.0
O=C(c1cccc(C(F)(F)F)c1)C1CCCN(Cc2ccccc2O)C1 (stereo not drawn)	1.4	·	8.8%	15.1	9.8
CCn1ccnc1CN(C)Cc1cn(-c2ccc(C)cc2)nc1-c1ccc(F)cc1	9.2	·	5.81µM*	-22.4	99.6
CC1(C)Cc2cccc(OCC(=O)NCCc3ccccc3)c2O1	12.6	·	·	·	-3.1
Cn1c(=O)cc(OCCCC(=O)N2CCN(c3ccccc3)CC2)c2ccccc21	-3.7	-45.0	·	-7.1	-0.4
O=C(CCN1C(=O)/C(=C\C=C\c2ccccc2)SC1=S)Nc1ccccc1C(=O)O	12.6	·	·	·	16.3
COc1ccc(-c2cc(C(=O)N3CCOCC3)c3ccccc3n2)cc1OC	-2.4	·	·	·	-2.6
O=C(NNC(=O)c1ccc(Cl)c(Cl)c1)c1ccncc1	0.9	·	·	·	99.0
Cc1cccc(NC2(C(F)(F)F)N=C(c3ccccc3)NC2=O)n1 (stereo not drawn)	-2.7	-35.3	1.1%	4.9	-3.8
COC(=O)c1c(-n2c(C)cc(C=O)c2C)sc2c1CCCC2	7.2	-6.4	-4.8%	5.5	7.4
Cn1c(=O)c2c(ncn2CC(O)CNc2cccc(Cl)c2)n(C)c1=O (stereo not drawn)	1.0	·	-3.0%	3.2	-4.8
COc1ccc(-c2csc(Nc3cc(C)ccn3)n2)cc1OC	10.4	·	·	·	94.6
O=C(CN1CCC(c2nc3ccccc3s2)CC1)N1CCCCC1	-1.9	·	-2.8%	-7.2	-5.7
O=C(O)C1CCCN1c1ncnc2c1oc1ccccc12 (stereo not drawn)	-3.2	21.6	-5.4%	-2.9	-1.6
CCSC1=NCCN1S(=O)(=O)c1ccc(F)cc1	1.3	·	·	0.2	-1.9
COc1ccc(NC2CCCN(C(=O)c3ccc4[nH]c(C)c(C)c4c3)C2)cc1OC (stereo not drawn)	-1.6	·	·	·	9.5
Nc1nc2sc3c(c2cc1C(=O)N1CCOCC1)CCCC3	-1.7	-48.9	5.4%	2.4	-4.5
COC(=O)c1ccccc1S(=O)(=O)N1CCC(C(=O)OCC(=O)c2ccccc2OC)CC1	-1.7	·	·	·	-3.5
COc1ccc(CCN2CC(C(=O)NCc3cnn(C(C)C)c3)CCC2=O)cc1 (stereo not drawn)	1.5	·	·	·	?
CC(NC(=O)CCNC(=O)c1ccc(Br)cc1)c1ccc(S(N)(=O)=O)cc1 (stereo not drawn)	-1.3	·	·	·	-6.2
CCn1cc(S(=O)(=O)CC(=O)Nc2cccc(C)c2)c2ccccc21	2.0	·	-0.9%	·	-2.3
CCC(C)(C)NC(=O)c1ccc(Br)o1	-0.8	-18.5	5.2%	1.8	2.3

Screening data from PubChem.
